# Compound activity as filed in PubChem BioAssay.
# A1 inhib: inhibitors of A1; MEF A1-2A-BIM cells, caspase-Glo luminescence, 3 h; percent of clofoctol signal, DMSO as zero; caspase activation, % (test concentration not listed); 21,000 tested, 0.51% active; AID 2241;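 active = most replicate scores above 10, or exactly half above 10 with mean activity above 10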;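 note: effector caspase 3 and 7 activity cleaving a DEVD luciferin substrate; 50 nL library stock added to about 30 µL; numbers are from one replicate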
# BJeLR viab HTS: lowers viability of BJeLR cells; BJeLR fibroblasts viability, CellTiterGlo ATP luminescence, 48 h; HRASV12, hTERT and SV40 LT/ST transformed; viability loss activity score, % (test concentration not listed); 30,000 tested, 0.64% active; AID 2275; in the data active = viability loss activity score above about 50%; about a fifth of its hits are not listed in these tables;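 note: higher score means fewer live cells and less ATP luminescence; stock transfer was 50 or 100 nL into about 30 µL; 0% = vehicle wells and 100% = a reference killing control; one replicate is shown; the record names a cut of 85%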
# Active calls of the source: *; nt = not tested or not shown. This is a subset; count on the stated rates, not on these rows.
mol,A1 inhib,BJeLR viab HTS
C[C@@H]1CN([C@H](C)CO)C(=O)c2cc(NC(=O)C3CC3)ccc2O[C@H]1CN(C)CC1CCCCC1,-0.8,-2.7
COc1ccc(S(=O)(=O)N(C)C[C@@H]2Oc3ccc(NC(=O)C4CC4)cc3C(=O)N([C@@H](C)CO)C[C@@H]2C)cc1,0.4,3.0
CC(=O)NCCCN(CCCCN(CCCNC(=O)/C=C/c1ccc(O)cc1)C(C)=O)C(=O)/C=C/c1ccc(O)cc1,-1.1,-9.0
CCOC(=O)c1cn(CC(=O)Nc2ccccc2)nn1,nt,-7.5
COc1ccc(CNC(=O)CCn2c(=O)c3sccc3n(Cc3cc(C)ccc3C)c2=O)cc1,nt,3.2
CCc1nnc(NC(=O)C2=CCN(S(=O)(=O)c3ccc(F)cc3)CC2)s1,-0.6,0.0
Cc1ccc(S(=O)(=O)N(C)C[C@H]2Oc3c(NC(=O)C4CCCCC4)cccc3C(=O)N([C@@H](C)CO)C[C@@H]2C)cc1,nt,0.9
CCc1ccc2nc(N3CCC(C(=O)NCCc4ccccc4)CC3)sc2c1,nt,2.0
COC(=O)C(Cc1c[nH]c2ccccc12)NS(=O)(=O)c1ccc(Cl)cc1 (stereo not given),0.1,0.3
C=C(CO)[C@]1(O)C[C@@]2(C)C(=CC1=O)C=C[C@@H](O)[C@@H]2C,0.0,2.3
CCSc1nnc(Cc2cc(=O)[nH]c(=O)[nH]2)n1-c1cccc(C)c1,nt,0.0
Cc1sc(/N=C/N(C)C)c(C(=O)c2ccc(Cl)cc2)c1C,0.3,1.3
CC(=O)O[C@@]1(C)C[C@@H](OC(=O)/C=C/c2ccc(O)cc2)[C@@H]2C(C(=O)O)=COC(O[C@@H]3O[C@H](CO)[C@@H](O)[C@H](O)[C@H]3O)[C@@H]21 (stereo not given in full),0.0,2.6
Cc1noc(C)c1NC(=O)Nc1cccc2c1O[C@H](CN(C)Cc1ccc(Cl)c(Cl)c1)[C@H](C)CN([C@H](C)CO)C2=O,nt,4.9
COc1ccc(C2=NOC(C(=O)N3CCCCC3C)C2)cc1 (stereo not given),nt,1.5
O=C(NCCCc1nc2ccccc2[nH]1)c1ccco1,-0.1,-1.1
Nc1nc(Cl)nc2c1ncn2C1C[C@@H](O)C(CO)O1 (stereo not given in full),1.2,-17
CC(C)OC(=O)c1cc(N)c2c(-c3ccc(F)cc3)c(-c3cccs3)sc2n1,-0.8,14
COc1cccc([C@H]2Nc3ccc(S(=O)(=O)Nc4ccc(C)c(C)c4)cc3[C@H]3C=CC[C@H]32)c1OC,-0.1,2.2
O=C(O)CCNc1ncnc2sc3c(c12)CCCC3,-0.2,0.0
COc1ccc(CN(C)C[C@H]2Oc3c(NS(=O)(=O)c4ccccc4)cccc3C(=O)N([C@H](C)CO)C[C@@H]2C)cc1,nt,4.5
COc1ccc(CN(C)C[C@H]2Oc3ccc(NS(=O)(=O)c4ccc(F)cc4)cc3C(=O)N([C@H](C)CO)C[C@@H]2C)cc1,0.2,4.1
COC(=O)c1cnn(-c2ccccc2)c1N,0.7,-0.6
Cc1cc(C)cc(OC2CCCCC2NS(=O)(=O)c2ccc(Cl)cc2)c1 (stereo not given),nt,0.7
COc1ccc(S(=O)(=O)Nc2ccc3c(c2)C(=O)N([C@@H](C)CO)C[C@@H](C)[C@@H](CN(C)S(=O)(=O)c2ccc(F)cc2)O3)cc1,-0.2,4.4

# The results go on:
mol,A1 inhib,BJeLR viab HTS
COc1ccc(NCC(O)Cn2c3ccc(Cl)cc3c3cc(Cl)ccc32)c(OC)c1 (stereo not given),nt,-1.5
CCCN(CCC)S(=O)(=O)c1ccc(C(=O)NN)cc1,0.0,2.8
O=S(=O)(NCC(c1cccnc1)N1CCN(Cc2ccccc2)CC1)c1ccccc1 (stereo not given),0.0,1.5
CC(C)=C1N=C(c2ccccc2)OC1=O,0.4,7.2
C[C@H]1CN([C@@H](C)CO)C(=O)c2cc(NC(=O)CCN3CCOCC3)ccc2O[C@@H]1CN(C)Cc1ccc(Cl)c(Cl)c1,1.2,1.5
CCOc1ccccc1C(=O)NCCc1cn2ccc(C)cc2n1,-0.1,2.3
CC1(C)CC[C@]2(C(=O)O[C@@H]3O[C@H](CO)[C@@H](O)[C@H](O)[C@H]3O)CC[C@]3(C)C(=CCC4[C@@]5(C)CC[C@H](O[C@@H]6O[C@H](C(=O)O)[C@@H](O)[C@H](O)[C@H]6O)C(C)(C)C5CC[C@]43C)C2C1 (stereo not given in full),-0.6,11
c1ccc(C2(Cn3ccc4ccccc43)OCCO2)cc1,0.6,2.8
COc1ccc(S(=O)(=O)Nc2ccc3c(c2)C(=O)N([C@H](C)CO)C[C@@H](C)[C@@H](CN(C)Cc2ccc(Cl)c(Cl)c2)O3)cc1,1.0,-1.6
Cn1cccc1/C=N/N1CCN(C2c3ccccc3-c3ccccc32)CC1,nt,2.2
O=C(CC(C(=O)O)n1ccnc1)c1ccc(C2CCCCC2)cc1 (stereo not given),-0.9,-0.1
C[C@@H]1CN([C@@H](C)CO)C(=O)c2cccc(NC(=O)C3CCOCC3)c2O[C@@H]1CN(C)C(=O)NC1CCCCC1,nt,-4.9
COc1ccc(NC(=O)Nc2ccc3c(c2)C(=O)N([C@@H](C)CO)C[C@H](C)[C@H](CN(C)S(C)(=O)=O)O3)cc1,-0.2,3.7
O=C1CC(c2ccccc2)n2nc(N3C(=O)CCC3=O)nc2N1 (stereo not given),0.7,6.7
COc1ccc(CCNC(=O)CSc2cc(Cl)nc3ccc(C)cc23)cc1OC,nt,6.9
CC(C)NC(=O)Nc1cccc2c1O[C@H](CN(C)S(=O)(=O)c1ccc(F)cc1)[C@@H](C)CN([C@H](C)CO)C2=O,nt,8.2
Cc1cc(C)c(NC(=S)NC(=O)c2ccccc2)c(C)c1,0.1,-1.9
CC(C)(O)CCCC(C)(O)c1ccc(C(=O)O)cc1O (stereo not given),-0.2,-1.7
N#Cc1c(-c2ccccc2Cl)cc(C2CC2)nc1N,-0.1,2.5
CCOC(=O)c1cncc(C#CCOC(=O)c2ccc(Cl)cn2)c1,-0.5,-2.9
Cc1cc(-c2ccc(F)cc2)nc2cc(C(=O)Nc3ccccc3C(F)(F)F)nn12,-1.1,-1.1
CCOC(=O)N1CCN(CC(O)COc2c(OC)cccc2OC)CC1 (stereo not given),0.7,2.0
O=C1C=C(SCC(=O)c2ccccc2)SC(c2ccc(Cl)cc2)C1 (stereo not given),-0.2,-1.2
C[C@H](CO)N1C[C@H](C)[C@@H](CN(C)S(=O)(=O)c2ccc(F)cc2)Oc2c(NS(=O)(=O)c3ccccc3)cccc2C1=O,nt,-4.4
C[C@@H]1CN([C@H](C)CO)C(=O)c2cccc(NC(=O)c3ccc(-c4nccs4)cc3)c2O[C@H]1CN(C)C(=O)Nc1ccc(F)cc1,nt,-2.7

# Carrying on:
mol,A1 inhib,BJeLR viab HTS
N#C/C(=C\c1ccc(C2=CCOc3ccccc32)s1)S(=O)(=O)c1ccccc1,0.1,-1.8
C[C@@H]1CN([C@H](C)CO)C(=O)c2cccc(NS(=O)(=O)c3cccs3)c2O[C@H]1CN(C)C(=O)Nc1ccc(C(F)(F)F)cc1,nt,-1.5
C=CCNC(=S)Nn1c(C)nnc1-n1nc(C)cc1C,-0.6,0.3
COC(=O)CN(c1ccccc1)S(=O)(=O)c1ccc(C)cc1,0.7,7.6
O=C(NC1CCCC1)c1cc(-c2ccc(Br)cc2)on1,nt,-5.2
C[C@H](CO)N1C[C@H](C)[C@@H](CN(C)S(=O)(=O)c2cccs2)Oc2ccc(NS(=O)(=O)c3ccccc3)cc2C1=O,-0.5,-0.6
C[C@H](CO)N1C[C@H](C)[C@H](CN(C)S(=O)(=O)c2ccc(F)cc2)Oc2ccc(NC(=O)c3ccncc3)cc2C1=O,0.5,-1.0
CN(NS(=O)(=O)c1ccc(Cl)cc1)c1cnn(C)c(=O)c1Cl,0.5,-4.2
CCOc1ccc(NC(=O)c2c(OC)cccc2OC)cc1,0.5,5.1
C[C@H]1CN([C@@H](C)CO)C(=O)c2cc(NC(=O)CCN3CCOCC3)ccc2O[C@H]1CN(C)Cc1ccc(Cl)c(Cl)c1,-0.5,0.0
C[C@@H]1CN([C@H](C)CO)C(=O)c2cc(NC(=O)C3CC3)ccc2O[C@@H]1CN(C)S(=O)(=O)c1cn(C)cn1,0.5,1.7
CCC(=O)NC(c1c(C)[nH]n(-c2ccccc2)c1=O)(C(F)(F)F)C(F)(F)F,0.4,4.7
Cc1ccc(C)n1-c1ccc(C(=O)OCC(=O)c2ccc(Cl)cc2)cc1,-1.1,-5.6
CC(NS(=O)(=O)c1ccc(Cl)cc1)C(c1cccs1)N1CCN(C)CC1 (stereo not given),nt,0.1
NC(=S)c1ccc(C(F)(F)F)cc1Cl,-0.9,-0.6
C[C@@H]1CN([C@@H](C)CO)C(=O)c2cc(NC(=O)CCCCCC(=O)Nc3ccccc3N)ccc2O[C@@H]1CN(C)C(=O)NC1CCCCC1,nt,-0.8
N#Cc1ccc(C=NCCN2CCNC2=O)cc1,-0.3,-2.6
CCc1ccc(-c2nc(CSCC(=O)NC3CC3)c(C)o2)cc1,nt,3.4
CCOc1ccc(/C=C(\NC(=O)c2ccccc2)C(=O)NC)c2ccccc12,-0.4,-0.4
NS(=O)(=O)c1ccc(NC(=O)C2CCCNC2=O)cc1 (stereo not given),0.4,2.6
C[C@@H]1CN([C@H](C)CO)C(=O)c2cccc(NC(=O)Nc3ccc(C(F)(F)F)cc3)c2O[C@@H]1CN(C)C(=O)Nc1ccc(F)cc1,nt,11
Cc1ccc(S(=O)(=O)N(C)C[C@@H]2Oc3ccc(NC(=O)NC4CCCCC4)cc3C(=O)N([C@@H](C)CO)C[C@H]2C)cc1,0.4,-0.8
CC(C)NC(=O)Nc1ccc2c(c1)C(=O)N([C@@H](C)CO)C[C@H](C)[C@H](CN(C)S(C)(=O)=O)O2,0.7,-0.5
CO[C@@H]1CC(OC2CCC3(C)C(CCC45CCC(C6=CC(=O)OC6)C(C)(CCC43)C5=O)C2)O[C@H](C)[C@@H]1O[C@@H]1O[C@H](CO[C@@H]2O[C@H](CO)[C@@H](O)[C@H](O)[C@H]2O)[C@@H](O)[C@H](O)[C@H]1O (stereo not given in full),-0.1,92*
CC(C)NC(=O)N(C)C[C@H]1Oc2c(NC(=O)c3cnccn3)cccc2C(=O)N([C@H](C)CO)C[C@H]1C,nt,-1.3

# Following part:
mol,A1 inhib,BJeLR viab HTS
Cc1ccc(S(=O)(=O)Nc2cccc3c2O[C@H](CN(C)C(=O)Nc2cccc4ccccc24)[C@@H](C)CN([C@@H](C)CO)C3=O)cc1,nt,-1.0
O=c1oc2ccccc2n1Cc1ccc(C(F)(F)F)cc1,0.9,5.8
C[C@@H]1CN([C@@H](C)CO)C(=O)c2cc(NC(=O)CCC(F)(F)F)ccc2O[C@@H]1CN(C)Cc1ccc2c(c1)OCO2,0.1,1.7
COc1ccc(NC(=O)N(C)C[C@@H]2Oc3ccc(NS(C)(=O)=O)cc3C(=O)N([C@@H](C)CO)C[C@H]2C)cc1,0.9,1.9
Cc1cc(C)c(C2C(C#N)=C(N)Oc3n[nH]c(C)c32)cc1COc1ccccc1Cl (stereo not given),0.3,-1.8
COc1ccc(NC(=O)Nc2ccc3c(c2)C(=O)N([C@@H](C)CO)C[C@@H](C)[C@@H](CN(C)C(=O)Nc2ccccc2)O3)cc1,-0.4,-1.8
O=C(NC(C(=O)O)C12CC3CC(CC(C3)C1)C2)c1ccc(F)cc1 (stereo not given),0.2,-7.8
C[C@H](CO)N1C[C@H](C)[C@@H](CN(C)Cc2ccc(Oc3ccccc3)cc2)Oc2ccc(NC(=O)C3CCCCC3)cc2C1=O,0.5,-1.3
O=C(Nc1ccc(-c2nc3cc(NC(=O)C4CCCCC4)ccc3o2)cc1)C1CCCCC1,-0.3,0.7
C=C1C(=O)O[C@@H]2C[C@H](C)[C@@]3(O)C[C@H](O)[C@@](C)(C[C@@H](OC(=O)C(C)C)[C@@H]12)O3,0.0,-1.6
C=C1C(NC)CCC23CC24CCC2(C)C(C(C)N(C)C(C)=O)C(O)CC2(C)C4CCC13 (stereo not given),0.3,5.3
